HPGD block = blocks human HPGD enzyme activity; P15428; purified HPGD, NADH fluorescence kinetic, PGE2 substrate; Potency, µM, inactives show at the highest dose activity change, negative = inhibition, usual class: inhibitors; 150,000 tested, 4.3% active; AID 894; active = well fitted inhibition curve with a large enough effect (not every such curve was filed as active); inconclusive = small, poorly fitted or top-dose-only effect, or another doubt; inactive = no such curve, though single readings can be large or run the other way;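 note: top concentration of the series not given in the record; plate controls included wells without enzyme; inactives centre near -10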
Target sequence (P15428 whole entry, looked up): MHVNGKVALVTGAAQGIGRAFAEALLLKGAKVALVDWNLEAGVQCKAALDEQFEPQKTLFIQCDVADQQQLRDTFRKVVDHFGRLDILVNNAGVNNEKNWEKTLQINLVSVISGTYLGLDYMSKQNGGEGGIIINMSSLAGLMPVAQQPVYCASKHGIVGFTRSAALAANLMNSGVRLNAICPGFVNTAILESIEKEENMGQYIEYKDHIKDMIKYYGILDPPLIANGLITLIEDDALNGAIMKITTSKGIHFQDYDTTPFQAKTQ
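20 nM HPGD preincubated 15 min at room temperature with compound in 50 mM Tris-HCl pH 8, 0.01% Tween 20. Started with 1 mM NAD+ and 30 uM prostaglandin E2; NADH fluorescence (360/450 nm) read 5 times over 30-s intervals, last minus first.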
Numbers without * were called inactive; ? = inconclusive; & = joins results of further samples. % is set by controls: 0 for no effect and ±100 for the full control effect; potency is the fitted concentration of half-maximal effect. Not all compounds are listed; count on the stated rates, not on these rows.

SMILES	HPGD block
S=c1[nH]nc(-c2ccc3ccccc3n2)n1-c1ccc(Cl)cc1	10µM*
CC(=O)c1c(C)[nH]c(C(=O)CSc2nnc(CN3CCCCCC3=O)n2-c2ccccn2)c1C	-17%
CCCNC(=O)Cn1cnc2sc(C(=O)Nc3ccc4c(c3)OCO4)c(C)c2c1=O	-19%
Cc1cc(C)nc(SCC(=O)c2cc3ccccc3oc2=O)n1	18µM*
O=C(O)C1CC=C(Cl)CC1C(=O)NCC1OCCc2ccccc21 (stereo not drawn)	-1%
FC(F)(F)c1nc(N2CCCC2)ncc1-c1nnnn1-c1ccc(Cl)cc1	-24%
CC(C)COC(=O)N1CCCC1C(=O)O (stereo not drawn)	-5%
Cc1cc(S(=O)(=O)N2CCOCC2)ccc1F	-7%
O=C(CSC(=S)N1CCCCC1)N1N=CCC1c1ccccc1 (stereo not drawn)	-15%
OC[C@@H]1[C@@H](c2ccc(F)cc2)C(c2ccc(F)cc2)=NN1c1ccccc1	?
CCOC(=O)C1=C(C)NC(C)=C(C(=O)OCC)C1C(=O)O	-3%
C=C(C(=O)OC)C(NC(=O)OC)c1ccccc1 (stereo not drawn)	-7%
O=C(Nc1ccccc1F)C1CCCN(S(=O)(=O)c2cccc3cccnc23)C1 (stereo not drawn)	-8%
COc1ccc(OC)c(C2CC(=O)N3CN(c4ccccc4F)CSC3=C2C#N)c1 (stereo not drawn)	25µM*
COC(=O)c1c(-c2ccccc2)csc1N	?
CC1CCc2c(sc3c2C2=NS(=O)(=O)CCN2C=N3)C1 (stereo not drawn)	-6%
CC#CCC(CC#CC)c1nc2ccccc2c(=O)n1N	-10%
Cc1ccc2c(c1)SC1=NC(c3ccccc3)(C(F)(F)F)NC(=O)N12 (stereo not drawn)	-12%
CSc1nnc(SCC2=NNC(=O)SC2)s1	-1%
O=C(COC(=O)c1ccccc1S(=O)(=O)N1CCCCC1)NCC(F)(F)F	-13%
O=C(NCc1cccnc1)c1ccccc1Br	?
Cc1cccc(N(Cc2cc3ccccc3[nH]c2=O)C(=O)c2ccco2)c1C	-27%
Cc1c(NC(=O)OCCNC(=O)Nc2ccccc2)sc(=S)n1C	-15%
CCCS(=O)(=O)N1CCN(Cc2ccncc2)CC1	1%
Cn1c(CC(=O)NCCO)c(Sc2ccccc2)c2ccccc21	-5%
COc1ccc(/C=C/C(=O)/C=C/c2ccc(OC)cc2OC)c(OC)c1	-21%
COc1ccccc1-c1nnc(SCC(=O)N2CCOCC2)o1	-17%
O=C(C1CCCCC1)N1CCC(n2nnc3ccccc32)CC1	-4%
Clc1cccc(CSc2nnc([C@@H]3CCCN3)o2)c1	?
COC(=O)c1cc(CSc2nnc(-c3ccccc3)c(-c3ccccc3)n2)oc1C	?
CC(C)(C)c1nc2ccccc2[nH]1	-12%
CCCCCCCCCCCCOC1OC(CO)C(O)C(O)C1NC(C)=O (stereo not drawn)	-4%
S=c1[nH]nc(-c2cccnc2)n1/N=C/C(Cl)=C\c1ccccc1	1.6µM*
Cc1c(Cl)cccc1NC(=O)CN1CCC(C(O)(c2ccccc2)c2ccccc2)CC1	-9%
OC(CN1CCCCC1)CN1CCCCC1	-3%
COc1ccc(CNC(=O)c2ccccc2SC)cc1	6.3µM*
Cc1ccc(S(=O)(=O)NC(=O)NC(C)(C)C)cc1	0%
COc1ccc(/C=N/NC(=O)c2ccco2)cc1Cn1nc(C)cc1C	-7%
O=C(Nc1ccc(S(=O)(=O)Nc2ncccn2)cc1)c1ccc(Br)s1	-22%
COc1ccc(Nc2ccc(S(=O)(=O)N3CCCCC3)cc2[N+](=O)[O-])cc1Cl	-23%
Cc1cc(C=C2C(=O)CCCC2=O)c(C)n1-c1ccccc1	-8%
COC(=O)C1=CNC=C(C(=O)OC)C1c1ccc(C(=O)OC)cc1	?
N#CCCN1CCN(S(=O)(=O)c2ccc(S(=O)(=O)N3CCCCCC3)cc2)CC1	-1%
COc1ccc(CCNC(=O)c2ccc(Cl)c(S(=O)(=O)N(C)c3ccccc3)c2)cc1	-15%
COc1ccc(S(=O)(=O)N2CCN(CCO)CC2)cc1-c1nnc2c3ccccc3c(C)nn12	?
Cc1ccc(N(C(=O)C(F)(F)F)C(C(=O)NC2CCCCC2)c2cccs2)cc1C (stereo not drawn)	-4%
COCCN(C(=O)Nc1ccccc1)C(C)c1cccnc1 (stereo not drawn)	4%
O=C(c1cccc(C(F)(F)F)c1)N1CCN(c2cc(=O)[nH]nc2-c2ccccc2)CC1	23%
Cc1ccc(NC(=O)/C(=C/c2ccncc2)NC(=O)c2ccccc2)cc1	-6%
CCc1nc(C)cn1S(=O)(=O)c1cc(Br)c(C)cc1OC	-3%
Cc1ccc(N2CC(C(=O)OCc3ccccc3)CC2=O)cc1 (stereo not drawn)	?
CCn1cc(-c2nnnn2-c2ccc(Cl)cc2)c(=O)c2ccccc21	-10%
O=c1oc2ccccc2c(N2CCCCC2)c1CN1CCCC1	-6%
CCN(CC)CCN1C(=O)C(=O)/C(=C(/O)c2ccc(F)cc2)C1c1ccncc1 (stereo not drawn)	-6%
CC(NC(=O)C1CCCN(S(=O)(=O)c2cccs2)C1)c1ccccc1 (stereo not drawn)	-12%
Cc1cc(C)nc(SCC2COc3ccccc3O2)n1 (stereo not drawn)	-23%
Cc1cccc(N2CCN(C(=O)C34CC5CC(CC(C5)C3)C4)CC2)c1C	-9%
CC(C)(CNCC(O)c1ccccc1)N1CCOCC1 (stereo not drawn)	-9%
O=C(Nc1ccc2c(c1)OCO2)C1CCN(S(=O)(=O)Cc2ccccc2)CC1	-8%
Cc1c(-c2ccccc2)nc2ccccc2c1C(=O)NCc1cccs1	?

Remaining list, next part:
SMILES	HPGD block
O=C(Nc1ccccc1C1CC1)c1cccs1	-21%
CC(=O)Nc1cccc(O)c1	1%&-8%
Cc1csc(NC(=O)CSc2nc3ccccc3c3c2CCCC3)n1	-17%
O/N=C1\CCc2cc(Cl)ccc21	-6%
CSc1cccc(-n2cc(-c3ccc4c(c3)OCO4)[nH]c2=O)c1	-23%
Cc1ccc(C(=O)N2CCCC(c3nc4c(nnn4Cc4ccccc4)c(=O)[nH]3)C2)cc1 (stereo not drawn)	3.5µM*
CCOc1ccc(-c2nc(CSCC(=O)NCCN3CCOCC3)c(C)o2)cc1	?
C=CCN1C(=O)CS/C1=C(\C#N)S(=O)(=O)c1ccc(C)cc1	-3%
Cc1nc(NCCN2CCOCC2)c2nnn(Cc3c(F)cccc3Cl)c2n1	-6%
CCOC(=O)N1CCN(C(=O)COc2ccc(S(=O)(=O)NCc3ccccc3)cc2)CC1	-13%
CCCCOc1ccc(-c2nc(/C=N/c3nccs3)c(O)o2)cc1	-2%
COc1cc(C(c2sc3ncnn3c2O)N2CCN(c3ccccc3F)CC2)cc(OC)c1OC (stereo not drawn)	0%
Nc1nnc(SCCCC(=O)c2ccccc2)s1	-3%
Cc1ccc(C(=O)NC(=S)Nc2cccc3nsnc23)cc1	-4%
CCN(CC)C(=O)c1sc(NC(=O)c2ccc(OC)c([N+](=O)[O-])c2)c(C#N)c1C	18µM*
CCOC(=O)c1cc(-c2ccccc2)sc1NC(=O)C(C)C	?
COc1ccc(C(=O)NCCCn2ccnc2)cc1	-8%
Cc1ccccc1OCCCC(=O)Nc1ccc(N2CCOCC2)cc1	-5%
O=C(Nc1ccccc1)N1CCC2(CC1)CCN(C(=O)c1csnn1)CC2	-8%
CCCc1nnc(NC(=O)c2c(O)c3cccc4c3n(c2=O)CC4)s1	?
O=C(NNC(=O)C1CCN(S(=O)(=O)c2ccc(Cl)cc2)CC1)c1ccccc1	-14%
CS(=O)(=O)N(Cc1ccccc1)c1ccccc1C(=O)O	-8%
O=C(Nc1ccc(Br)cc1F)C1CCCN(S(=O)(=O)c2cnc[nH]2)C1 (stereo not drawn)	-8%
Cc1ccc(CNC(=O)CS(=O)Cc2nc(-c3cccs3)oc2C)cc1 (stereo not drawn)	28µM*
CCOC(=O)c1nn(-c2ccccc2C)c2nc(-c3ccc(Cl)cc3)c(C#N)c(=O)n12	?
CCC1=NN(C(=O)c2ccc(Br)cc2)C(O)(c2ccc(C)cc2)C1 (stereo not drawn)	-8%
O=C(/C=C/c1ccccc1)NCCN1CCOCC1	-13%
COc1ccc(NC(=O)CN(c2ccc(C(C)C)cc2)S(=O)(=O)c2c(C)noc2C)cc1OC	2%
CCCCC(CC)CNC(=O)C1CCCN(S(=O)(=O)c2cnc[nH]2)C1 (stereo not drawn)	-7%
Cc1cc(NC(=O)CSc2nc3c(c(=O)n2-c2ccc(Br)cc2)SCC3)no1	-3%
Cc1nc2sccn2c(=O)c1Br	-15%
O=C(CCN1C(=O)c2ccccc2C1=O)N1CCC(c2ccccc2)C1 (stereo not drawn)	-8%
COC(=O)C1=C(C(=O)OC)[C@@H]2N(Cc3ccccc3)c3ccccc3[C@@]23C[C@@H](C(=O)OC)N(S(=O)(=O)c2ccc(C#N)cc2)C3=N1	-9%
Cc1cc(C2=NNC(=NC3CC3)SC2)c(C)n1-c1c(C)n(C)n(-c2ccccc2)c1=O	-19%
CCc1c(C)sc(NC(=O)c2cccs2)c1C#N	?
O=C(CSc1nc2cc(Cl)ccc2o1)c1cccs1	14µM*
O=C(OCC(CO)OC(CO)n1ccc(=O)[nH]c1=O)c1ccccc1 (stereo not drawn)	-6%
COC(=O)c1cn(Cc2c(C)cc(C)cc2C)nn1	-3%
CCOC(=O)N1CCC(NC(=O)c2ccc3c(c2)sc2nc(-c4ccc(OC)cc4)cn23)CC1	?
Nc1nc(Cl)nc2c1ncn2[C@@H]1O[C@H](COP(=O)(O)OP(=O)(O)OP(=O)(O)O)[C@H](O)[C@H]1O	-5%
O=C(O)C1C2C=CC(C2)C1C(=O)Nc1ccc(C(=O)N2CCCCC2)c(Cl)c1 (stereo not drawn)	0.45µM*
COc1cccc(-c2nnc(SCN3C(=O)c4ccccc4C3=O)n2C)c1	0%
COc1ccc(-c2csc(C)n2)cc1	-4%
CC1=C(C(=O)OC(C)C)C(c2c(O)ccc3ccccc23)NC(=O)N1 (stereo not drawn)	-3%
COc1ccc(C(=O)NCc2cn3c(C)csc3n2)cc1OC	-10%
CCc1ccc2c(c1)CCCN2C(=O)c1ccccc1C(=O)O	-3%
Cc1ccc(C(=O)N2C3C=CC(C3)C2(C(F)(F)F)C(F)(F)F)cc1 (stereo not drawn)	-11%
Cc1cc(C(=O)CN2CCCCC2)c(C)n1-c1ccc(F)cc1	?
O=C(NCCN1CCOCC1)c1ccccc1[N+](=O)[O-]	-18%
C=CCn1c(C)cc(C(=O)COc2ncnc3sccc23)c1C	-10%
Cc1oc2c(O)c(O)ccc2c(=O)c1-c1cnn(-c2ccccc2)c1	18µM*
CC1=NN(C(N)=S)C(=O)C1N=Nc1ccc(C)cc1C (stereo not drawn)	-10%
O=C(c1ccc(-c2cc3ccccc3oc2=O)cc1)N1CCN(c2ccc(Cl)cc2[N+](=O)[O-])CC1	-13%
Cc1ccc(-c2csc3ncn(CC(=O)N4CCOCC4)c(=O)c23)cc1C	-5%
O=C(c1cnccn1)N1CCC[C@@]2(CCN(Cc3ccccc3)C2)C1	-11%
Cn1cc(S(=O)(=O)CC(=O)Nc2ccc(Br)cc2)c2ccccc21	-3%
CC(C)CC(C(=O)OCC(=O)Nc1cccc(Cl)c1)N1C(=O)C2CC=CCC2C1=O (stereo not drawn)	-13%
Cc1cc(Cl)ccc1OCC(=O)Oc1c(Cl)c(Cl)c(Cl)c(Cl)c1Cl	-11%
Cc1noc(C)c1C(=O)NC1CCCc2ccccc21 (stereo not drawn)	-11%
Cc1sc(NC(=O)c2ccco2)nc1-c1ccccc1	14µM*

Some of the entries so far, with the structure last.
HPGD block	SMILES
-4%	COc1ccc(-c2csc(C)n2)cc1
-3%	CC1=C(C(=O)OC(C)C)C(c2c(O)ccc3ccccc23)NC(=O)N1 (stereo not drawn)
-10%	COc1ccc(C(=O)NCc2cn3c(C)csc3n2)cc1OC
-3%	CCc1ccc2c(c1)CCCN2C(=O)c1ccccc1C(=O)O
-11%	Cc1ccc(C(=O)N2C3C=CC(C3)C2(C(F)(F)F)C(F)(F)F)cc1 (stereo not drawn)
?	Cc1cc(C(=O)CN2CCCCC2)c(C)n1-c1ccc(F)cc1
-18%	O=C(NCCN1CCOCC1)c1ccccc1[N+](=O)[O-]
-10%	C=CCn1c(C)cc(C(=O)COc2ncnc3sccc23)c1C
18µM*	Cc1oc2c(O)c(O)ccc2c(=O)c1-c1cnn(-c2ccccc2)c1
-10%	CC1=NN(C(N)=S)C(=O)C1N=Nc1ccc(C)cc1C (stereo not drawn)
-13%	O=C(c1ccc(-c2cc3ccccc3oc2=O)cc1)N1CCN(c2ccc(Cl)cc2[N+](=O)[O-])CC1
-5%	Cc1ccc(-c2csc3ncn(CC(=O)N4CCOCC4)c(=O)c23)cc1C
-11%	O=C(c1cnccn1)N1CCC[C@@]2(CCN(Cc3ccccc3)C2)C1
-3%	Cn1cc(S(=O)(=O)CC(=O)Nc2ccc(Br)cc2)c2ccccc21
-13%	CC(C)CC(C(=O)OCC(=O)Nc1cccc(Cl)c1)N1C(=O)C2CC=CCC2C1=O (stereo not drawn)
-11%	Cc1cc(Cl)ccc1OCC(=O)Oc1c(Cl)c(Cl)c(Cl)c(Cl)c1Cl
-11%	Cc1noc(C)c1C(=O)NC1CCCc2ccccc21 (stereo not drawn)
14µM*	Cc1sc(NC(=O)c2ccco2)nc1-c1ccccc1

The list continues.
SMILES	HPGD block
C=CCOC(=O)CC(NC(=O)c1ccccc1)c1ccccc1 (stereo not drawn)	-11%
CCN1C(=O)C2(C(C#N)=C(N)Oc3n[nH]c(COC)c32)c2ccccc21 (stereo not drawn)	-3%
Cc1nc(N2CCC(C)CC2)c2oc3ccccc3c2n1	-8%
O=S(=O)(c1cccc(-c2nc3n(n2)Cc2ccccc2-3)c1)N1CCCC1	-15%
COc1ccc(CCCn2ncc3c2nc(N)n2nc(-c4ccco4)nc32)cc1	?
Cc1nn(Cc2c(F)c(F)c(F)c(F)c2F)c(C)c1NC(=O)c1ccc(COc2ccccc2Cl)cc1	1%
